# Bioassay records from PubChem BioAssay.
# PINK1 modulator: changes PINK1 expression; PINK1 immunofluorescence, high-content cytometry, 24 h; Potency, µM (doses to about 76.6 µM), for inactives: at the top dose activation (PINK1 increase), hits mostly activators; actives 0.2% (n = 410,000); active = well fitted activation curve with a large enough effect; inconclusive = small, poorly fitted or top-dose-only effect; inactive = flat fitted curve, though single readings scatter; cell line not stated here;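 further: potency means the concentration at half of the fitted maximal effect; % of control where 0% means no effect; nearly all actives have a fitted effect of over 65% in size; a mitochondrial uncoupler was the plate control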
#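 Stable cell line, 250 cells/well, 12 h attachment; compounds pinned at 5 concentrations, 24 h; CCCP control. Fixed with nuclear dye, primary antibodies 12 h at 10 degrees C, secondary plus cell stain; laser-scanning cytometer read.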
# TRPV1 PAM: human TRPV1 potentiation; TRPV1-expressing cells, Fluo-8 calcium influx, capsaicin EC20 potentiation; host cell line not named in the record; control for the full effect not named in the record; Q8NER1; AID 540277; potentiation, % at 8.33 µM; actives 0.02% (n = 320,000); active means potentiation above 80%; inconclusive means 30% to 80%; inactive means below 30%; further: 0% is about no effect
# Target sequence (Q8NER1 whole entry, looked up): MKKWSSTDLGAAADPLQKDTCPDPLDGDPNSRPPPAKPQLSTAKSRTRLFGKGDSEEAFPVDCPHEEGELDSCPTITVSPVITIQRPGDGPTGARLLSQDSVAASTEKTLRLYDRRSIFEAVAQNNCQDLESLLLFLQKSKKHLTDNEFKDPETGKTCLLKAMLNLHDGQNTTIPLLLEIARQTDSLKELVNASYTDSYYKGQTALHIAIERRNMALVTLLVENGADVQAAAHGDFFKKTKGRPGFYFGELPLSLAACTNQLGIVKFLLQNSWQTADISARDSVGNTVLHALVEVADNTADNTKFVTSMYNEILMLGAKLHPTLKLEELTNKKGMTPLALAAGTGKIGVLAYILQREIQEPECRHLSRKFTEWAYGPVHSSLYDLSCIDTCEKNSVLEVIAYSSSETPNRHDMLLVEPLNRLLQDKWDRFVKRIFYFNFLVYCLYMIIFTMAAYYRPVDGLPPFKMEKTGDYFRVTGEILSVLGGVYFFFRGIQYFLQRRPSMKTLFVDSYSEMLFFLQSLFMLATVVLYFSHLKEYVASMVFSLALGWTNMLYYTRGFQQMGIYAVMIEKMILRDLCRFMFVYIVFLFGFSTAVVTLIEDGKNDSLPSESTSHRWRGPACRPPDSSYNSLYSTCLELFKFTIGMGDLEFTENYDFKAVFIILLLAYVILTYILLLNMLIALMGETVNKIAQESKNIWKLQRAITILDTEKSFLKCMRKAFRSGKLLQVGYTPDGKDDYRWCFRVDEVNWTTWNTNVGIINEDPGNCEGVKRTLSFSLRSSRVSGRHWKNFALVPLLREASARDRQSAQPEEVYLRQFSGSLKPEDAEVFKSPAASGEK
#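 Cells expressing TRPV1 were dye-loaded with Fluo-8 and read kinetically: 10 s baseline, 3 min after compound (agonist portion), then 2 min after EC20 capsaicin (allosteric enhancer portion). Calcium-bound dye fluorescence at 480/520 nm.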
# Menin MLL FP FL: menin-MLL binding inhibition, fluorescein peptide; FP activity change, % at 61.4 µM; AID 1766; Fluorescence polarization, fluorescein-MLL peptide displacement from menin; 290,000 tested, under 10 active; inconclusive = falling polarisation curve, or a change in total fluorescence; inactive = total fluorescence flat and polarisation flat or rising; no compound was filed as active; the % refers to the polarisation; negative = inhibition;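 further: % of control where 0% means no effect; inhibitors lower the polarisation; unlabelled MLL peptide was the positive control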
# Sfp PPTase inh: Sfp phosphopantetheinyl transferase inhibition. actives 3.5% (n = 310,000). AID 1490. Potency, µM, without a hit: max response, negative = inhibition, hits mostly inhibitors. Q9F4F7. Biochemical Sfp PPTase activity, qHTS; active means well fitted inhibition curve with a large enough effect; inconclusive means small, poorly fitted or top-dose-only effect, or another doubt; inactive means no such curve, though single readings can be large or run the other way;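 further: the enzyme is Sfp with the accession as filed and its product quenches rhodamine fluorescence; potency means the concentration at half of the fitted maximal effect; 0% = enzyme reaction without inhibitor and -100% = no enzyme wells; top concentration of the series not given in the record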
#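 Step 1, compound plus 15 nM Sfp-PPTase, 15 min, room temperature. Step 2, add rhodamine-CoA (5 uM) and BHQ-2-YbbR (12.5 uM). Step 3, read 525/598 nm fluorescence at 0 and 30 min.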
# TRPML1 ag: agonists of human TRPML1 channel; actives 0.12% (n = 410,000); TRPML1-expressing cells, Ca2+ dye fluorescence, FDSS; host cell line not named in the record; reference of the full effect not given here; Q9GZU1; activation, % (concentration not given with the values); in the data active = activation above about 50%; inconclusive = about 30% to 50%; inactive = below about 30%; further: 0% is about no effect; the text of the record puts the active cut at 80%
#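 In this qHTS format, compounds were pin-transferred onto Ca8-dye-loaded TRPML1-DL cells induced with Tet overnight, and intracellular Ca2+ fluorescence was recorded kinetically for 110 s after a 10 s baseline. A subsequent 4uM final 54-4 (EC80) addition followed by a second 110 s read served as the antagonist phase.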
# TRPML1 inh: blocks the human TRPML1 channel; actives 0.02% (n = 390,000); activity change, negative = inhibition, % (concentration not given with the values); TRPML1-inducible cells, Ca2+ dye fluorescence, FDSS; active compounds read low; inhibition of EC80 agonist-evoked calcium signal; in the data active means activity change below about -50%; inconclusive means about -30% to -50%; inactive means above about -30%;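 further: stimulus is agonist 54-4 at its EC80 concentration; on the % scale 0 is the no-effect control and ±100 the full control effect; the text of the record puts the active cut at -80%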
#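 Tet-induced TRPML1-DL cells loaded with Ca8 no-wash calcium dye were read kinetically on FDSS. Compound addition was followed by EC80 agonist 54-4 (4 uM final); inhibition was read over 110 s.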
# ClpP mod: qHTS Assay for Activators of ClpP | ATP-dependent Clp protease proteolytic subunit (Bacillus subtilis (strain 168)), P80244 | purified B. subtilis ClpP, FRET peptide cleavage, 20 min | Potency, µM (titrated, usually from 57.5 µM), inactives show at the top dose activity change, negative = active | actives 1.9% (n = 340,000); active = well fitted falling curve with a large enough effect; inconclusive = small, poorly fitted or top-dose-only effect; inactive = no such curve, though single readings can be large or run the other way; further: potency means the concentration at half of the fitted maximal effect; the source files actives as falling curves though it sought activators and does not explain the sign; nearly all actives have a fitted effect of over 65% in size; many hits overshoot -100%
# Target sequence (P80244 whole entry, looked up): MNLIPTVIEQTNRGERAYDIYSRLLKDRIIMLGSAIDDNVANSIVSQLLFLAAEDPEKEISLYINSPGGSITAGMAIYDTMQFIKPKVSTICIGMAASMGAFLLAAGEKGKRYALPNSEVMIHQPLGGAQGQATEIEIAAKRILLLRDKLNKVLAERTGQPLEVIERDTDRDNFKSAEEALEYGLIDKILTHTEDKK
#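 ClpP 10 microg/mL final, pH 8 Tris/KCl buffer with BSA, glycerol, Tween-20; compound pinned in; FRET-FV substrate; RT 20 min; Ex320/Em430; ΔFRET vs ADEP 5.8 microM, DMSO, no enzyme.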
# * = called active by the depositor; ? = inconclusive; / = not tested or not shown; & = joins results of further samples; [ ] = dose if it differs, or a comment. Not a hit list; about 4.4% have a hit in one of these screens.
smiles	ClpP mod	TRPV1 PAM	TRPML1 inh	TRPML1 ag	PINK1 modulator	Menin MLL FP FL	Sfp PPTase inh
Cn1ncc([N+](=O)[O-])c1C(=O)Nc1ccccc1C(=O)O	/	-3	-8	0.2	0.3%	-0.7	9%
Cc1cc2cc(CNC(=S)Nc3ccc(OC(F)(F)F)cc3)ccc2[nH]1	0.7%	-13	3	-1.2	7.0%	4.3	25%
C[C@H](NC(=O)C1CCN(C(=O)[C@H](Cc2ccccc2)NC(=O)OC(C)(C)C)CC1)C(=O)O	/	-3	29	0.5	1.0%	-1.5	4%
Cc1cc(=O)oc2cc(OC(C)C(=O)NCCCn3ccnc3)ccc12 (configuration not stated)	/	0	10	0.1	-2.1%	-0.5	10%
CN(Cc1ccccc1)C(=O)COC(=O)c1ccc(Br)o1	-9.7%	/	3	0.2	-1.3%	/	/
Nc1ccc(Oc2ccccc2F)nc1	/	6	35	1.2	2.8%	?	11%
CSc1ccccc1NC(=O)C1(C)CCN1C(=O)CCC1CCCC1 (configuration not stated)	-3.3%	/	/	-1.2	2.5%	/	/
CC(=O)c1ccc(NC(=O)CN2CCOCC2)cc1	0.1%	8	/	/	0.6%	1.9	10%
COC(=O)c1ccccc1NC(=O)C1CCN(C(=O)c2ccc(OC)cc2)CC1	-1.3%	1	-7	-1.6	-2.0%	-2.0	16%
C/C=C\C=C/C(=O)Nc1cccc(C2=NOC3(C2)C[C@@H](C(N)=O)N(C(=O)/C=C/C=C\C)C3)c1 (some centres not stated)	1.0%	-10	5	-0.3	0.5%	12	3.5µM*
O=S(=O)(c1ccccc1)N1CCN(c2ncnc3sc(-c4ccccc4)cc23)CC1	?	1	-5	0.8	0.3%	0.1	18%
O=c1c(C(c2ccc(F)cc2)c2c(O)nc3n(c2=O)CCS3)c(O)nc2n1CCS2	/	15	-9	1.7	-0.1%	3.2	-22%
Cc1ccc2nc(CNC(=O)C3CCC(=O)N(Cc4ccccc4F)C3)cn2c1 (configuration not stated)	?	6	7	0.7	0.5%	/	24%
C[C@@H]1C(c2ccccc2)=NN(c2ccccc2)[C@H]1C(=O)N1CCOC1=O	-8.2%	/	10	-0.4	1.5%	14[94.6 µM]	10%
Cc1ccc(S(=O)(=O)N2CCN(Cc3cc(=O)n4ccccc4n3)CC2)cc1C	-7.2%	3	-7	2.1	-0.8%	/	/
COc1ccc(COc2ccc3c(C)cc(=O)oc3c2)cc1	4.8%	13	23	-0.1	-0.6%	-0.9	?
COc1ccc(OC)c(CNC(=O)c2cccc(NC(=O)N3CCSc4ncccc43)c2)c1	?	/	-18	1.1	0.7%	/	/
Cc1nc2cc(-c3ccccc3)nn2c(C)c1CCC(=O)NCc1ccco1	-29%	5	19	0.1	0.5%	-5.2	?
COc1ccc(C)cc1S(=O)(=O)N1CCN(S(=O)(=O)c2cc(C(=O)O)ccc2C)CC1	1.5%	-2	?	1.1	2.8%	-2.4	6%
Cc1cc(C(C)(C)C)n2nc(C)c(-c3ccccc3)c2n1	/	-17	5	1.6	0.3%	-10	-7%
Cc1ccc(C=Nc2ccccc2C(N)=O)o1	-13%	1	-8	-0.2	0.8%	0.8	-50%
CC(C)(Oc1ccc(Cl)cc1)C(=O)O/N=C(\N)c1ccncc1	/	-13	41	0.8	-2.6%	1.2	14%
O=C(Nc1ccccc1Cl)N1CCN(C/C=C/c2ccccc2)CC1	?	-9	5	1.4	1.8%	0.1	0%
CC(=O)Nc1cccc(NC(=O)c2cccc(Cl)c2)c1	-0.8%	/	/	-0.8	1.2%	/	/
Cc1ccc2c(c1)C1(OCCCO1)C(=O)N2CC(=O)NN	-3.5%	/	-10	0.5	-1.0%	/	/
COc1ccc(CNC(=O)c2c(C)nc3ccccn23)cc1	-24%	14	-1	-0.3	5.0%	-2.2	10%
O=C(Nc1ccc(F)c(Cl)c1)C1Cc2c(-c3ccc(Cl)cc3)ccnc2O1 (configuration not stated)	-26%	/	/	0.9	?	/	/
Cc1ccc2c(c1)c1c(c(=O)n(-c3ccccc3)c(=O)n1CC(=O)N1CCCC1)n2C	4.9%	/	4	-0.7	0.3%	/	/
CN1CCC(=O)N([C@H](CO)Cc2ccccc2)CC1	0.3%&-0.5%	7	-14	1.1&-0.1	-0.4%	-6.0	1%
Cc1ccc(S(=O)(=O)N(C)CC(=O)N2CCN(Cc3ccccc3)CC2)cc1	-4.4%	4	-2	-0.1	0.2%	/	-1%
O=C(NCCc1ccccc1)c1nc2c(nnn2Cc2ccccc2Cl)c(=O)[nH]1	-2.4%	20	32	3.9	-5.9%[38.3 µM]	-0.7	-5%
Cc1cc(NC(=O)CN2CCN(C)CC2)no1	0.2%	1	5	-0.2	-0.6%	0.1	-23%
O=C(NCc1ccco1)c1n[nH]c(=O)c2ccccc12	-3.1%	12	2	0.1	4.9%[38.3 µM]	-2.4	-2%
O=C1CC[C@@H]2CC3(C[C@@H]4CCN1[C@H]24)Nc1cc([N+](=O)[O-])ccc1NC3=NC1CCCCC1 (some centres not stated)	2.6%	/	5	0.3	1.9%	/	/
Cc1nc2c([nH]1)C1(CCN(Cc3ccccc3)CC1)C(C#N)=C(N)O2	16µM*	-3	14	1.6	-0.8%	?	6%
COc1ccc(C(=O)CSc2nnc(-c3ccco3)c(-c3ccco3)n2)cc1	-0.5%	12	19	2.2	7.3%	2.2	8.9µM*
CCC(=O)Nc1ccc(F)c(Cl)c1	-1.5%	28	7	-0.2	1.7%	-1.4	3%
CCOc1ccc(NC(=O)CSc2nc3nc(C)cc(C)n3n2)cc1	-2.6%	7	0	0.5	1.8%	0.0	15%
Cc1cccc(Cn2c(SCc3ccc(C(=O)NCc4cccs4)cc3)nc3cccnc32)c1	4.5%	/	-14	0.0	5.5%	/	/
N#Cc1cccc(NC(=O)C2CCCN(C(=O)c3ccc(Cl)cc3)C2)c1 (configuration not stated)	2.2%	-8	5	0.0	4.5%	/	/
O=C(NCc1cccs1)C1CCN(S(=O)(=O)c2ccc(Br)s2)CC1	?	-15	0	1.3	0.2%	2.5	11%
Cc1ccc2oc(-c3ccc(C)c(NC(=O)COc4ccc(Cl)cc4C)c3)nc2c1	?	/	/	-0.2	2.8%	/	/
CCOc1ccccc1N(C)C(=O)Cn1ncc2c([nH]c3ccc(C)cc32)c1=O	3.6%	6	1	0.2	0.1%	-0.7	6%
CCOC(=O)c1ccc(OCC2c3cc(OC)c(OC)cc3CCN2C(=O)Cc2ccc(F)cc2)cc1 (configuration not stated)	-5.6%	/	9	2.9	-5.1%	/	/
COc1cc(CC(=O)OCn2nnc3ccccc3c2=O)cc(OC)c1OC	/	3	-20	-0.5	2.1%	-6.2	23%
O=S(=O)(NCC(c1ccco1)S(=O)(=O)c1cccs1)c1ccc(F)c(C(F)(F)F)c1 (configuration not stated)	-0.4%	/	15	1.4	0.1%	/	/
O=C(NC1CCCCC1)C1c2ccccc2C(=O)N1Cc1ccco1 (configuration not stated)	1.4%	-3	81	-0.1	-0.2%[38.3 µM]	-1.5	-21%
CCCC(=O)N1CCN(c2nc3ccc(Cl)cc3s2)CC1	0.1%	9	17	0.1	1.1%	/	10%
CCCNC(=O)/C=C/C(=O)O	0.0%	17	-15	0.1	4.4%	-1.8	16%
COc1cc(CCCN2C(=O)C(=O)NC[C@H]2Cc2cccc3ccccc23)cc(OC)c1OC	1.5%	/	-10	-1.2	0.2%	/	/

# Next part:
smiles	ClpP mod	TRPV1 PAM	TRPML1 inh	TRPML1 ag	PINK1 modulator	Menin MLL FP FL	Sfp PPTase inh
COc1ccc(/C=C(\C#N)C(=O)OCC(=O)NCc2ccccc2)cc1	?	6	-11	0.8	1.6%	2.1	9%
CCc1cccc(NC(=O)c2oc3ccc4c(c3c2C)C(=O)CC(C)(C)O4)c1	?	/	52	0.9	4.3%	/	/
CCN(CC)S(=O)(=O)c1ccc2oc(C(=O)Nc3ccc(OC)cc3OC)c(C)c2c1	631%	0	19	-0.3	5.5%[38.3 µM]	2.1	2%
COC(=O)C1=C(C)NC2=C(C(=O)CCC2)C1c1cccc(C)n1 (configuration not stated)	?	13	85	0.3	1.3%[38.3 µM]	-2.5	3%
Cc1ccn2c(c1)nc(=O)c1cc(S(=O)(=O)N3CCCCC3)ccc12	4.9%	-4	-5&9	-0.5&0.3	0.1%&-1.6%	-2.7	13%
COC(=O)c1cc(S(=O)(=O)N(C)C2CCCCC2)c[nH]1	0.5%	-11	24	0.8	-1.5%	-0.2	11%
CCOC(=O)CC1C(=O)NCCN1C(=O)c1ccc(F)cc1F (configuration not stated)	-1.9%	-3	17	-0.7	-2.1%	3.0	-2%
Cc1cccc(C(=O)Nc2sc(C)c(-c3ccccc3)c2C#N)c1	?	-4	-3	2.8	2.0%	?	?
NS(=O)(=O)c1ccc(S(=O)(=O)N(Cc2ccccc2F)CC2CCCO2)cc1 (configuration not stated)	0.6%	-16	-1	-0.3	1.1%[38.3 µM]	2.8	10%
CC1CCN(C(=O)CN(Cc2ccccc2)S(C)(=O)=O)CC1	0.8%	3	-19	-0.3	0.2%	-0.7	6%
O=C(O)/C=C/C(=O)N1CCN(Cc2ccc3c(c2)OCO3)CC1	-0.9%	6	8	1.7	0.7%	-1.2	19%
CCOC(=O)CSc1nnc(-c2ccc3ncccc3c2)n1C	-2.7%	-2	-3	-0.5	3.5%	-2.1	17%
COc1ccc(C(=O)OCC(=O)NC2CC2)cc1S(=O)(=O)Nc1ccc(C)cc1	-2.8%	2	-21	1.1	-0.8%	/	/
O=C(O)c1ccccc1C1Nc2ccccc2C(=O)N1CCCN1CCOCC1 (configuration not stated)	-19%	-10	-11	0.7	1.6%	2.2	14%
CCCCn1c(SCC(=O)/C(C#N)=C(\C)N)nc2ccccc2c1=O	-0.7%	-8	-4	1.5	0.4%	/	-10%
